# Source: PubChem BioAssay (National Center for Advancing Translational Sciences (NCATS))
# Rango dissoc inh: inhibitors of RanGTP-induced Rango-importin beta complex dissociation | O95149+P62826 | Biochemical FRET Rango-importin beta, RanGTP-induced dissociation | Potency, µM (doses to about 46.1 µM), without a hit: at the highest dose activity change, negative = inhibition | actives 0.071% (n = 340,000); active means falling FRET ratio curve, often poorly fitted, with flat reads before Ran was added; inconclusive means other falling curves, or compound fluorescence or quenching; inactive means flat or rising ratio curve;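 note: potency is the fitted concentration of half-maximal effect; % of control where 0% means no effect; nearly all actives have a fitted effect of over 45% in size; -100% = wells without RanGTP and RCC1; the record marks most hits as doubtful in a second field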
#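 FRET read at 45 min, room temperature: inhibitors block the CFP/YFP signal rise when RanGTP (0.6 uM Ran, 2 mM GTP, 0.2 uM RCC1) frees Rango (0.1 uM) from importin beta (0.25 uM). Pre-read after 5 min compound exposure flags interference.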
# Rango-impB inh: Rango-importin beta binding inhibition; Potency, µM (highest dose often 92.2 µM), for inactives: at the top dose inhibition of complex formation; Rango CFP/YFP FRET sensor + importin beta, 45 min; actives 0.031% (n = 340,000); active = rising FRET ratio curve, often small or poorly fitted; inconclusive = mostly compound fluorescence or quenching in the first reads; inactive = flat curves in all reads;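 note: potency is the fitted concentration of half-maximal effect; 0% = DMSO wells and 100% = buffer wells lacking importin beta; nearly all actives have a fitted effect of over 15% in size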
# Target sequence (Q14974 whole entry, looked up): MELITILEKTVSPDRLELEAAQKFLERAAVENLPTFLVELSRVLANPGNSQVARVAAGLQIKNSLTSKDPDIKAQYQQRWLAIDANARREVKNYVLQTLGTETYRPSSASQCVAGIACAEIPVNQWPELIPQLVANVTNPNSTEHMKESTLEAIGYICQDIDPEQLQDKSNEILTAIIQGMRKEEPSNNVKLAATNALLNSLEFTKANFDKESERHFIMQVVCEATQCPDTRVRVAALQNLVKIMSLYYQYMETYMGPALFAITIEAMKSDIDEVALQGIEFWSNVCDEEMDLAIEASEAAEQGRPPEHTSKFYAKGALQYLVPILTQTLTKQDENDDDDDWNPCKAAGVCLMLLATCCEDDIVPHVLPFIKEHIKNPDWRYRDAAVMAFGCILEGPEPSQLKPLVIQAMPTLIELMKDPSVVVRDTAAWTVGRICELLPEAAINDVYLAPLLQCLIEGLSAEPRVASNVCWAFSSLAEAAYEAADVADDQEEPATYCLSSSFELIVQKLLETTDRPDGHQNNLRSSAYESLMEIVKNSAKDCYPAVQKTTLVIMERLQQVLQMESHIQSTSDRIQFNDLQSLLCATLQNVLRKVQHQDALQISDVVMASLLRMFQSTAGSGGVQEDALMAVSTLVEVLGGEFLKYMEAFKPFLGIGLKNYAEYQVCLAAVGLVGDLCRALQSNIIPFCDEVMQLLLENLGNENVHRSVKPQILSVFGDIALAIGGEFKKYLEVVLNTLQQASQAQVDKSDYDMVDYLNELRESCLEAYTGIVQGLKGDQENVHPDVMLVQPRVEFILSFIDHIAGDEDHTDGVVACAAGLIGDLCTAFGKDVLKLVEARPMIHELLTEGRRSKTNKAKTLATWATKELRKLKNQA
#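 Inhibition scored from the CFP 486 nm/YFP 530 nm FRET ratio 45 min after adding 0.125 microM importin beta to 50 nM Rango biosensor preincubated 5 min with compound (room temperature, PBS with DTT, Tween-20, BSA). No-importin wells as positive control.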
# GLA inh pH 4.5: inhibitors of human alpha-galactosidase A at pH 4.5; P06280; purified enzyme, 4-MU-alpha-Gal fluorescence, pH 4.5; activity change, negative = inhibition, % at 105 µM; 230,000 tested, under 10 active; inconclusive = small, poorly fitted or top-dose-only inhibition, or a rising curve; inactive = flat fitted curve, though single readings scatter; no compound was filed as active;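 note: 0% = full activity with enzyme and -100% = basal without enzyme; dose as in the result columns while the protocol names 77 µM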
# miR-21 FLuc: miR-21 reporter, rising signal; HeLa miR-21 FLuc reporter, luciferase, 48 h; Potency, µM (titrated, usually from 38.3 µM), inactives show top-dose reporter change, positive = more light; 340,000 tested, under 10 active; active = well fitted rising curve with a large enough effect; inconclusive = small, poorly fitted or top-dose-only effect; inactive = no such curve, though single readings can be large or run the other way;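 note: % of control where 0% means no effect; miR-21 action dims this reporter so a rising signal means less miR-21 action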
#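 HeLa miR-21-FLuc reporter line, endogenous miR-21; 2000 cells/well in DMEM/10% FBS; compound titration up to ~40uM final, 48 h, 37 degree Celsius; luciferase detection reagent, 15 min lysis, CCD luminescence.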
# The depositor's hits bear a star; ? = inconclusive; . = not tested or not shown. These rows are one share of the data (hit frequency here may not be typical).
# Order of values: Rango-impB inh | Rango dissoc inh | GLA inh pH 4.5 | miR-21 FLuc
- N#C/C=C1\Sc2ccccc2C(=O)N1CC(=O)N1CCN(S(=O)(=O)c2ccccc2)CC1
→ ? | ? | 0 | -40%
- CC(C(=O)NC(N)=O)N1C(=O)NC(c2ccccc2)(c2ccccc2)C1=O (stereo not given)
→ 3.2% | -10% | . | 6%
- Cc1ccc(S(=O)(=O)NCc2ccccc2)cc1
→ -4.0% | 20% | -3 | -1%
- CCN(Cc1ccccc1)C(=O)c1cccc(S(=O)(=O)N2CCN(c3ccccc3)CC2)c1
→ -0.9% | 11% | . | .
- O=C(C(Cl)Cl)N1CCN(c2ccccn2)CC1
→ -4.9% | 10% | 4 | 3%
- COc1cc2nc(CN3CCN(c4ncc(C(F)(F)F)cc4Cl)CC3)[nH]c(=O)c2cc1OC
→ . | . | -1 | 2%
- O=C1N(c2ccc(Cl)cc2)C(c2ccccc2)N2CCCN12 (stereo not given)
→ 0.4% | 17% | -6 | -3%
- COC(=O)c1cc(-c2ccc(OC)cc2)n[nH]1
→ -0.1% | 20% | -1 | -55%
- COc1ccccc1C(=O)NNC1=NS(=O)(=O)c2ccccc21
→ 0.0% | 0% | . | -8%
- COc1ccc(CC(=O)OCC(=O)Nc2ccc3c(c2)OCO3)cc1OC
→ -3.9% | 8% | 4 | -7%
- Cc1ccc(-c2nnn(CC(=O)N3CCN(c4nc5ccccc5s4)CC3)n2)cc1
→ -0.1% | 0% | 1 | 2%
- CCCCOC(=O)Nc1cc(C(=O)OC)ccc1C(=O)OC
→ -1.6% | -7% | -4 | -7%
- COc1cccc(N2CC(C(=O)Nc3c(C)cccc3C)CC2=O)c1 (stereo not given)
→ 1.2% | 3% | -2 | -2%
- O=C(O)c1ccc(OCc2ccc(C(=O)O)o2)cc1
→ -1.0% | 15% | . | -2%
- NC(=O)C1(C(N)=O)OC1c1ccccc1 (stereo not given)
→ 1.9% | 16% | -4 | 6%
- COc1ccc(-c2cccc(CCC(=O)N3CCN(c4cc(C)ccc4C)CC3)c2)cc1
→ -3.5% | 17% | . | .
- CCC(C)[C@H](NC(=O)NCc1ccc(F)cc1)C(=O)O (stereo not given in full)
→ -1.6% | -5% | -7 | 0%
- COc1cccc(OCC(=O)NC2CCS(=O)(=O)C2)c1 (stereo not given)
→ -0.7% | -10% | . | .
- S=P(N1CC1)(N1CC1)N1CC1
→ -3.9% | 9% | 2 | .
- Cn1c(=O)c(C(=O)NCCc2ccccc2)c(O)c2ccccc21
→ 0.3% | -9% | . | -3%
- COc1ccc(NC(=O)c2ccco2)cc1NC(=O)c1ccccc1
→ ? | -2% | . | 0%
- Cn1c(=O)c(NCCc2ccccc2)c2c3c(cccc31)C(=O)c1ccccc1-2
→ ? | ? | -6 | -3%
- CCCCC1CCCC12NC(=O)NC2=O (stereo not given)
→ 0.3% | 18% | 5 | -1%
- O=C(Nc1ccccc1)SC1CCCCC1
→ 3.0% | 19% | . | .
- O=Cc1[nH]c2ccccc2c1N(C(=O)CCl)c1ccc([N+](=O)[O-])cc1
→ 1.7% | -22% | -10 | 30%
- Cc1cc(C)c(NC(=O)CNC(=O)COC(=O)C2=COCCO2)c(C)c1
→ 1.5% | 0% | . | .
- NC(=O)c1ccc(NC(=O)c2ccc(CN3CCOCC3)cc2)cc1
→ 4.7% | 1% | -4 | -3%
- c1csc(Cc2nc3ccccc3[nH]2)c1
→ 3.0% | -12% | -13 | -27%
- N#CCCN(C(=O)CN1c2cccc3cccc(c23)S1(=O)=O)c1ccccc1
→ 2.0% | 1% | . | .
- CCN1CCCC1CNC(=O)Cn1cnc2ccc(S(=O)(=O)N3CCC(C)CC3)cc2c1=O (stereo not given)
→ 4.6% | -4% | -16 | -4%
- Cc1cc(C(=O)OCC(=O)NNC(=O)c2cccs2)ccc1[N+](=O)[O-]
→ -1.8% | 0% | . | .
- CCCc1nc2c(s1)CCc1onc(-c3ccc(Br)cc3)c1-2
→ 4.4% | 1% | . | .
- Cc1nn(C)c(C)c1S(=O)(=O)N(CC(=O)NCCCN1CCC(C)CC1)c1ccc(C(C)C)cc1
→ 0.3% | 3% | . | 0%
- CCOc1ccc2nc(N(CCN(C)C)C(=O)c3cc4ccccc4cc3OC)sc2c1
→ 2.7% | 7% | . | 4%
- COc1ccc(-n2c(C)c(C(C)=O)c3cc(O)ccc32)cc1
→ 4.7% | 2% | 4 | 18%
- O=C1CC(Sc2ccc(Cl)cc2)C(=O)N1Cc1ccncc1 (stereo not given)
→ -5.7% | 25% | -2 | 4%
- CC(OC(=O)c1nn(C)c(=O)c2ccccc12)C(=O)NC1CCCCC1C (stereo not given)
→ 5.7% | 11% | . | .
- COc1ccc(C(=O)/C=C2/C(=O)Nc3ccccc32)cc1
→ 4.0% | 1% | . | ?
- Cc1ccc(NC(=S)NC(NC(=O)c2ccco2)C(Cl)(Cl)Cl)cc1 (stereo not given)
→ -1.3% | 0% | -6 | 16%
- CCCn1nnnc1NCc1ccc(OC)cc1
→ -4.5% | 16% | . | -5%
- COC(=O)C1=C(N)OC2=C(C(=O)CC(C)(C)C2)C1c1ccoc1 (stereo not given)
→ 3.1% | 8% | 7 | -2%
- O=C1COc2ccc(C(=O)CSc3ccccc3C(=O)O)cc2N1
→ -0.8% | -9% | 5 | -1%
- CCc1ccccc1NC(=O)CNC(=O)CCc1nc2sc3c(c2c(=O)[nH]1)CCCC3
→ ? | -19% | . | .
- Cn1c(/C=C/c2ccccc2)nc2ccccc21
→ 0.0% | 19% | 8 | 17%
- C=CCN=C1S/C(=C\c2ccc(N(C)C)cc2)C(=O)N1CC=C
→ ? | ? | -6 | -55%
- COc1ccc(/C=C/C(=O)NC(=S)NNC(=O)c2ccco2)cc1OC
→ -3.9% | -6% | -1 | -3%
- N#CC(C#N)=Cc1ccc(NC(=O)c2ccc(Br)cc2)cc1
→ -0.2% | -7% | 3 | -60%
- CO/N=C\CC(=O)Nc1ccc(Cl)cc1Cl
→ -3.4% | -11% | -1 | 7%
- Cc1ccccc1CSCCNC(=O)CSCc1ccc([N+](=O)[O-])cc1
→ 0.3% | 3% | -1 | -11%
- C(=N\c1nccs1)/c1c[nH]c2ccccc12
→ -0.9% | ? | 3 | 2%

# Seven compounds out of the list, sorted by SMILES length, rising.
# Order of values: Rango-impB inh | Rango dissoc inh | GLA inh pH 4.5 | miR-21 FLuc
- CO/N=C\CC(=O)Nc1ccc(Cl)cc1Cl
→ -3.4% | -11% | -1 | 7%
- Cn1c(/C=C/c2ccccc2)nc2ccccc21
→ 0.0% | 19% | 8 | 17%
- C(=N\c1nccs1)/c1c[nH]c2ccccc12
→ -0.9% | ? | 3 | 2%
- O=C1COc2ccc(C(=O)CSc3ccccc3C(=O)O)cc2N1
→ -0.8% | -9% | 5 | -1%
- C=CCN=C1S/C(=C\c2ccc(N(C)C)cc2)C(=O)N1CC=C
→ ? | ? | -6 | -55%
- COc1ccc(/C=C/C(=O)NC(=S)NNC(=O)c2ccco2)cc1OC
→ -3.9% | -6% | -1 | -3%
- CCc1ccccc1NC(=O)CNC(=O)CCc1nc2sc3c(c2c(=O)[nH]1)CCCC3
→ ? | -19% | . | .

# The list goes on:
# Order of values: Rango-impB inh | Rango dissoc inh | GLA inh pH 4.5 | miR-21 FLuc
- O=S(=O)(c1ccc(N2CCC(c3ccc(Cl)cc3)=N2)cc1)N(CCO)CCO
→ ? | ? | ? | -8%
- OC[C@H]1O[C@@H](n2cnc3c(NC4CCCC4)ncnc32)[C@H](O)[C@@H]1O
→ -2.7% | 12% | . | -36%
- CCn1c(CSCc2ccc(C)cc2)n[nH]c1=S
→ -2.6% | 1% | . | -3%
- CCOC(=O)[C@@H]1[C@H]2COc3cc(OC)ccc3[C@@H]2N2C(=O)N(c3ccc(Br)cc3)C(=O)[C@]12C
→ -0.2% | -7% | . | .
- Cc1cc(NCCN(C)C)n2nc(-c3cccs3)cc2n1
→ ? | -26% | -12 | -6%
- O=C1OCC2=C1C(c1ccccc1)CC(=O)N2c1ccc(F)cc1 (stereo not given)
→ -2.3% | -12% | 14 | 2%
- COc1ccc(S(=O)(=O)N2CCC(c3nc4ccccc4[nH]3)CC2)cc1
→ -1.2% | 12% | . | 19%
- Cc1cc(NC(=O)COC(=O)C2CCC2)no1
→ 4.5% | -4% | -1 | 0%
- CCc1ccccc1N1CSC2=C(C#N)C(c3ccccc3F)CC(=O)N2C1 (stereo not given)
→ ? | ? | 0 | 0%
- Cc1ccc(S(=O)(=O)O)c(C)c1N1CCCC1=O
→ -0.6% | 9% | -1 | -9%
- COc1ccc(OC)c(Nc2nc(N)c([N+](=O)[O-])c(N3CCOCC3)n2)c1
→ 1.9% | 15% | . | -2%
- CCCC(=O)N1CCc2cc(OC)c(OC)cc2C1c1cc2cc3c(cc2[nH]c1=O)OCO3 (stereo not given)
→ -5.0% | 4% | . | .
- O=C1CSC(c2cccc([N+](=O)[O-])c2)N1CCN1CCCCC1 (stereo not given)
→ -0.9% | -11% | 10 | -3%
- O=C(O)c1cccc(Sc2cc(Cl)ccc2C(=O)O)c1
→ 6.0% | 14% | . | .
- Cc1ccc(Cn2c(SCc3cccnc3)nc3c2c(=O)n(C)c(=O)n3C)cc1
→ -2.4% | 4% | -14 | -10%
- CC(=O)c1c(C)[nH]c(C(=O)CN2CCN(S(=O)(=O)c3ccccc3[N+](=O)[O-])CC2)c1C
→ -1.1% | 3% | . | .
- O=C(NCC1CCCO1)c1ccc(NC(=O)c2ccc([N+](=O)[O-])cc2)cc1 (stereo not given)
→ 1.4% | 1% | . | -1%
- O=C(CSc1n[nH]c(-c2ccncc2)n1)Nc1ccc(Cl)c(Cl)c1
→ 10% | -9% | . | -8%
- Cc1cc(Oc2ccc(Cl)cc2)nc(-c2ccccn2)n1
→ -0.9% | 0% | 0 | 23%
- N#C/C(=C\c1ccncc1)C(=O)Nc1ccc(C(=O)O)cc1
→ 0.0% | 11% | . | -2%
- O=C(CSc1nc2ccc([N+](=O)[O-])cc2[nH]1)c1ccc(Cl)cc1
→ -1.7% | -5% | -2 | -7%
- Cc1ccc(NC(=O)c2cc3c(=O)oc4ccccc4c3s2)nc1
→ 2.7% | 1% | -10 | -6%
- O=[N+]([O-])c1ccc(N/N=C/c2cn(-c3ccccc3)nc2-c2ccccc2)cc1
→ ? | ? | ? | -19%
- Cc1ccccc1C1C(C#N)=C2N=C(N)c3c(sc4c3CCCCC4)N2C2=C1C(=O)CCC2 (stereo not given)
→ ? | ? | -18 | 23%
- O=C1C2C(C(=O)N1Cc1ccco1)C1C=CC2C12CC2 (stereo not given)
→ -8.3% | -5% | -1 | -1%
- COC(=O)c1oc2ccccc2c1NC(=O)c1ccccc1O
→ -0.5% | 2% | 11 | 14%
- CC1CCCN(CC(O)COc2ccc(Cl)cc2)C1 (stereo not given)
→ 0.7% | -14% | 8 | -9%
- O=C(NC1CCCC1)c1ccc(COc2ccccc2Br)o1
→ -1.1% | ? | . | -18%
- Cc1cccc(NCc2ccccc2O)c1C
→ -0.3% | 0% | 7 | -6%
- CC(=O)Nc1ccc(/C=N/N2CCCCC2)cc1
→ 1.2% | 1% | -11 | -31%
- O=C(Nc1ccc2c(c1)OCO2)c1ccc2c(c1)OCO2
→ -1.1% | 4% | -1 | -18%
- O=C(Nc1nccs1)C1CC=CCC1C(=O)OCC(F)(F)C(F)F (stereo not given)
→ 0.1% | 4% | . | .
- COc1cc(CNCCN2CCOCC2)ccc1OCc1c(Cl)cccc1Cl
→ . | . | -15 | -12%
- CC(C)CCNC(=O)[C@H](Cc1ccccc1)N1Cc2ccccc2C1=O
→ -0.9% | 8% | . | -2%
- CC(=O)Nc1cccc(C(=O)OCc2csc(CC(=O)Nc3ccccc3C)n2)c1
→ -3.9% | -3% | . | .
- C=CCNS(=O)(=O)c1ccc(OC)c(C)c1
→ ? | -4% | -2 | -4%
- COc1ccc(C(=O)N/N=C(\Cc2ncc[nH]2)c2ccccc2)cc1
→ -1.3% | 1% | 4 | -6%
- N#CC(C#N)=C1C=CC=CN1/C(=C\c1ccccc1Cl)C(=O)c1ccccc1
→ ? | ? | 0 | ?
- Cc1ccc(CCNC(=O)c2ccc(NC3=NC4CS(=O)(=O)CC4S3)cc2)cc1 (stereo not given)
→ -3.5% | -13% | . | -3%
- O=C(CNC(=O)c1cccc(F)c1)N/N=C/c1ccc([N+](=O)[O-])s1
→ -0.1% | 10% | -4 | 26%
